# High-throughput results: PubChem, National Center for Advancing Translational Sciences (NCATS)
# SARS PLP yeast = blocks SARS-CoV papain-like protease in a yeast assay | 0.19% of 330,000 active | AID 485353 | S. cerevisiae expressing SARS-CoV PLpro, growth rescue; control for the full effect not named in the record | Potency, µM (highest dose often 32.9 µM), inactives show at the highest dose activity, positive = growth rescue; active means well fitted rising curve with a large enough effect; inconclusive means small, poorly fitted or top-dose-only effect; inactive means no such curve, though single readings can be large or run the other way; also: 0% is about no effect; nearly all actives have a fitted effect of over 55% in size; growth read by luminescence after 48 h
# LASV entry inh = inhibitors of Lassa virus binding or cell entry; Lassa virus pseudotype entry inhibition, cell reporter; control for the full effect not named in the record; Potency, µM (top dose mostly 37.9 µM), inactives show at the top dose activity change, negative = inhibition, hits mostly inhibitors; 1.2% of 300,000 active; AID 540256; active means well fitted inhibition curve with a large enough effect; inconclusive means small, poorly fitted or top-dose-only effect, or effect the other way; inactive means flat fitted curve, though single readings scatter; tested in HEK293 cells; also: % is scaled to controls: 0 for no effect and ±100 for the full control effect; nearly all actives have a fitted effect of over 50% in size; luciferase read-out
# 2A StopGo = FMDV 2A StopGo reporter, luciferase signal. human cells with a luciferase reporter of 2A StopGo recoding; control for the full effect not named in the record. 1.2% of 410,000 active. Potency, µM (top dose mostly 57.9 µM), inactives show at the highest dose signal change, negative = less light; active = well fitted falling curve with a large enough effect; inconclusive = small, poorly fitted or top-dose-only effect; inactive = no such curve, though single readings can be large or run the other way; tested in HEK293T cells; also: % is scaled to controls: 0 for no effect and ±100 for the full control effect; nearly all actives have a fitted effect of over 45% in size; luciferase light after 4 h
# NS1 inh = inhibitors of influenza NS1 protein function; S. cerevisiae slowed by influenza A NS1, growth recovery by OD600; Potency, µM (doses to about 46.1 µM), for inactives: at the highest dose activity, positive = more growth; 0.4% of 270,000 active; AID 2326; active means well fitted rising curve with a large enough effect; inconclusive means small, poorly fitted or top-dose-only effect; inactive means no such curve, though single readings can be large or run the other way; also: nearly all actives have a fitted effect of over 50% in size
#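 A cell-based growth assay was used: compounds that relieve NS1-induced slow growth of budding yeast raise OD600. Assay medium was yeast nitrogen base with ammonium sulphate and -URA supplement, pH 6.0, with 2% galactose.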
# RE007 growth inh = less growth of the S. pombe RE007 Vpr strain | S. pombe RE007 Vpr strain, BacTiter-Glo ATP luminescence, 24 h; control for the full effect not named in the record | Potency, µM (titrated, usually from 92.2 µM), inactives show at the top dose activity change, negative = less growth | AID 651644 | 0.21% of 360,000 active; active = well fitted falling curve with a large enough effect; inconclusive = small, poorly fitted or top-dose-only effect; inactive = no such curve, though single readings can be large or run the other way;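 also: % is scaled to controls: 0 for no effect and ±100 for the full control effect; nearly all actives have a fitted effect of over 50% in size; the assay follows cell death caused by Vpr and the record does not say whether a fall means rescue or toxicity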
#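 Fission yeast strain RE007, carrying one chromosomally integrated HIV-1 vpr copy, was seeded at OD 0.01 in PMG+AL medium with 23 nL pinned compound. After 24 h at 30 °C and 99% humidity, viability was read by BacTiter-Glo luminescence.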
# MARV entry inh = inhibitors of Marburg virus binding or cell entry. Potency, µM (titrated, usually from 37.8 µM), without a hit: at the top dose activity change, negative = inhibition, usual class: inhibitors. Marburg virus pseudotyped entry inhibition, cell reporter; control for the full effect not named in the record; about a third of the inactives were read at about 46 µM. 1.8% of 300,000 active; active = well fitted inhibition curve with a large enough effect; inconclusive = small, poorly fitted or top-dose-only effect, or effect the other way; inactive = flat fitted curve, though single readings scatter; tested in HEK293 cells; about a fifth of its hits are not listed in these tables; also: % is scaled to controls: 0 for no effect and ±100 for the full control effect; luciferase read-out
# Cruzain inh Det = inhibitors of Trypanosoma cruzi cruzain with detergent; P25779; Potency, µM, without a hit: max response, negative = inhibition, hits mostly inhibitors; purified cruzain, Z-FR-AMC fluorescence, 0.01% Triton; 0.43% of 200,000 active;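 also: plate controls were neutral wells for no effect and buffer without enzyme for full effect; nearly all actives have a fitted effect of over 40% in size; top concentration of the series not given in the record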
# Target sequence (P25779 123-467 limits assumed): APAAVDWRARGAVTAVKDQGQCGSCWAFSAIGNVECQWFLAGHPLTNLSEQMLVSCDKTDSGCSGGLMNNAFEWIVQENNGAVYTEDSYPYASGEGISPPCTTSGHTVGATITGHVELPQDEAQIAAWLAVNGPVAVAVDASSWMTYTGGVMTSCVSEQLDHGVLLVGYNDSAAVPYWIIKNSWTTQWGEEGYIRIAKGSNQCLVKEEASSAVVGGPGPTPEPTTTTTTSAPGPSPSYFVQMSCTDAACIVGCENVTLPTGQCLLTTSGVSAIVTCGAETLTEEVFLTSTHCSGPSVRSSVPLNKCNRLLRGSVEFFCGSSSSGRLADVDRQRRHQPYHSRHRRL
#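 Enzyme 1.5 nM, Z-FR-AMC 2 uM, NaOAc 100 mM pH 5.5, DTT 5 mM, Triton X-100 0.01%; 15 min RT compound preincubation; kinetic ex360/em450, 60 s delta.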
# Cruzain inh noDet = inhibitors of Trypanosoma cruzi cruzain without detergent | P25779 | AID 1476 | 2.3% of 200,000 active | Potency, µM, for inactives: max response, negative = inhibition, usual class: inhibitors | purified cruzain, Z-FR-AMC fluorescence, no detergent;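 also: plate controls were enzyme without inhibitor for no effect and buffer without enzyme for full effect; nearly all actives have a fitted effect of over 40% in size; top concentration of the series not given in the record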
#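 Purified cruzain at 1.5 nM, pre-incubated 15 min with compound at room temperature in 100 mM sodium acetate pH 5.5, 5 mM DTT, 0.00005% Triton X-100. Reaction started with 2 uM Z-FR-AMC; AMC fluorescence increase over 60 s gives rate.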
# * marks the source's active call; other numbers are inactive results; ? = inconclusive; . = no result given; [ ] = another dose, or the depositor's remark. Unless noted, calls follow the shape of the dose curve; as a rule, active = well fitted curve in the direction sought with a large enough effect; inconclusive = small, poorly fitted or top-dose-only effect, or another doubt; inactive = no such curve, though single readings can be large; an effect the other way counts as inactive or inconclusive. Potency is read from the fitted curve at half-maximal effect.
SMILES,SARS PLP yeast,LASV entry inh,2A StopGo,NS1 inh,RE007 growth inh,MARV entry inh,Cruzain inh Det,Cruzain inh noDet
O=c1ccc2cc(S(=O)(=O)N3CCOCC3)ccc2o1,5%,-1%,-17%,-7%,19%,-2%[46.1 µM],2.9%,-7%
CC(C)(C)c1ccc(C(=O)NCCN2CCCC2)cc1,1%,.,7%,0%,17%,.,.,.
CCOC(=O)c1noc2ncn(CC(=O)Nc3cc(Cl)ccc3OC)c(=O)c12,.,?,0%,.,.,.,-5.1%,-2%
CCOc1ccc(S(=O)(=O)N2CCC(C(=O)N3CCCCCC3)CC2)cc1C,-8%,?,-12%,-9%,1%,?,.,.
O=C(CN1C(=O)C2CCCCC2C1=O)Nc1ccc(S(=O)(=O)Nc2ncccn2)cc1 (centres undefined),0%,12%,-6%,.,6%,18%[46.1 µM],.,.
COc1ccc(NC(=O)C(=O)Nc2cccc3cccnc23)cc1OC,-8%,2%[46.1 µM],40%[activator],-2%,5%,?,.,.
CC(C)(C)NCc1cc(Cl)ccc1OCc1ccccc1F,1%,-27%,-24%,.,6%,?,.,.
COc1cccc(NC(=S)N2CCC(NC(=O)c3ccco3)CC2)c1,2%,9%,6%,4%,-7%,21%[46.1 µM],.,.
CC1=C(C(=O)OCC2CCCO2)C(c2ccsc2)C2=C(CC(C)(C)CC2=O)N1 (centres undefined),-3%,-1%,0%,.,6%,-1%,.,.
C/C(=N\NS(=O)(=O)c1ccc(C(C)(C)C)cc1)c1ccccc1,-4%,.,69%[activator],-1%,-3%,.,.,.
O=C(c1ccc(COc2ccc(Cl)cc2Cl)o1)N1CCCC1,-12%,0%,14%,-75%,28%,1%,.,.
CC(=O)n1cc(/C=N/NC(=O)c2sc(C)nc2C)c2ccccc21,-12%,0%,0%,-10%,6%,-16%,-1.9%,?
COc1ccc(S(=O)(=O)Nc2cc3c4c(c2)CCN4C(=O)CC3)cc1,2%,16%,15%,.,-8%,1%[46.1 µM],.,.
CC(C)C[C@H](NC(=O)OC(C)(C)C)c1nnc(SCc2ccccc2)o1,-18%,?,-8%,-6%,0%,-24%,-2.5%,12%
CCOC(=O)C1=C(COC(=O)c2cc(S(=O)(=O)N(C)C)ccc2C)NC(=O)NC1C (centres undefined),-5%,-16%,?,.,13%,?,.,.
COc1cccc(NC(=O)c2nc3ncccn3n2)c1,.,15%,3%,-3%,-1%,-9%,4.9%,-10%
CCN(CC(=O)Nc1ccccc1C(F)(F)F)C(=O)c1cc(-c2cccs2)nn1-c1ccccc1,1%,.,?,-15%,23%,.,.,.
Cn1cc(S(=O)(=O)N2CCCCCC2)cc1C(=O)NCc1ccc(Cl)cc1,.,?,?,.,.,.,-26%,-6%
COc1ccccc1-c1cnnc(N/N=C/c2ccc(-c3cccc(Br)c3)o2)n1,-10%,3%,-22%,13%,-1%,-6%,-4.1%,?
CCCSc1ncc(Cl)c(C(=O)Nc2nc3ccc(C)cc3s2)n1,.,5%[46.1 µM],24%,.,.,12%[46.1 µM],-2.5%,-1%
O=C(CN(CC1CCCO1)C(=O)CNS(=O)(=O)c1ccc(Cl)cc1)NCc1ccc(F)cc1 (centres undefined),8%,-5%,-1%,-11%,-7%,-6%[46.1 µM],.,.
CC1CCN(C(=O)CSc2nc(C(C)C)nc3c2c(=O)n(C)c(=O)n3C)CC1,0%,.,-9%,22%,-16%,.,.,.
COC(=O)c1cccc(C(=O)Nc2ccc(C)cc2)n1,-11%,3%,20%,-18%,-29%,15%,3.2%,14%
CCOC(=O)c1cc(C)n(CC2CCC(C(=O)Nc3cccc(Cl)c3)CC2)c1C (centres undefined),.,21%[46.1 µM],-10%,.,.,.,-0.3%,10%
COc1ccccc1C(=O)NCCC(=O)N1CCN(c2ccc(C(F)(F)F)cn2)CC1,2%,10%,?,.,-8%,-26%[46.1 µM],.,.
COc1cc2c(cc1NC(=O)c1cc(-c3cccnc3)nc3ccc(C)cc13)oc1ccccc12,-3%,-31%,?,18%,-1%,7%,1.4%,11%
CC(C)(C)c1ccc(-c2nnc(N)s2)cc1,-1%,.,45%[activator],-30%,9%,.,.,.
CN1C(C(=O)Nc2ccc(F)cc2F)=CC(c2ccc3c(c2)OCO3)=NS1(=O)=O,.,-3%[46.1 µM],12%,.,.,8%[46.1 µM],-1.3%,9%
CC(=O)N1CCC(=NNc2ncc(C(F)(F)F)cc2Cl)CC1,1%,?,-10%,3%,8%,?,.,.
CC(C)NC(=O)N(Cc1ccc(Cl)cc1)Cc1cccs1,0%,.,-19%,1%,-9%,.,.,.
O=C(Cc1cccc2ccccc12)Nc1nnc(-c2cccc([N+](=O)[O-])c2)s1,13%,0%,2%,12%,-7%,12%,0.2%,25µM*
Cn1c(CNC2CCCCC2)nc2ccccc21,-1%,19%,-5%,1%,-5%,12%,.,.
Cn1cc(C(=O)NCc2ccccc2)c(=O)c2cc(S(=O)(=O)N3CCOCC3)ccc21,.,23%[46.1 µM],-3%,.,.,-2%[46.1 µM],-1.9%,-2%
O=C(Oc1ccc(NC2=NS(=O)(=O)c3ccccc32)cc1)c1cccnc1,-2%,24%[46.1 µM],-4%,.,5%,8%[46.1 µM],.,.
COc1cc(CO)cc(Br)c1OCC(=O)N1CCCCC1,3%,11%,11%,-7%,-19%,10%,5.8%,-7%
COc1ccc(CNC(=O)c2cccnc2)cc1,24%,.,4%,3%,1%,.,.,.
COc1cc(NC(=O)C2CCN(S(=O)(=O)c3ccc4c(c3)CCCC(=O)N4)CC2)cc(OC)c1,.,-12%[46.1 µM],-10%,.,.,.,-2.8%,12%
O=C(NCc1ccc(Cl)cc1)c1cnn2ccccc12,-8%,.,6%,-57%,5%,.,3.8%,9%
Cc1ccc(N2C(=O)CSC23C(=O)Nc2ccccc23)cc1F (centres undefined),.,19%[46.1 µM],-14%,.,.,.,-3.8%,8%
CCOC(=O)N1CCC(NC(=O)c2ccc(CS(=O)c3cccc(Cl)c3)o2)CC1 (centres undefined),2%,.,-17%,5%,-5%,.,.,.
O=C(NCc1ccon1)C1CCC(=O)N(Cc2cccc(C(F)(F)F)c2)C1 (centres undefined),3%,.,11%,-3%,-8%,.,.,.
NC(=O)c1ccc(-n2nnnc2Oc2ccccc2)cc1,-1%,6%,.,-1%,8%,-12%,0.2%,-3%
O=C(COc1ccc(F)cc1)N(Cc1ccc(Cl)cc1)C1CCS(=O)(=O)C1 (centres undefined),-11%,.,-1%,17%,-15%,.,.,.
CC(C)C12CN3CC(C(C)C)(CN(C1)C3c1ccc(Cl)cc1)C2=O (centres undefined),.,3%[46.1 µM],-22%,.,.,-5%[46.1 µM],1.4%,19%
O=C(COc1ccccc1[N+](=O)[O-])N1CCC(Cc2ccccc2)CC1,-7%,-1%,-26%,.,6%,-26%[46.1 µM],.,.
Cc1ccc(S(=O)(=O)N2CCOCC2)cc1C(=O)NCCc1ccc(Cl)cc1,-4%,-6%[46.1 µM],-17%,.,0%,-26%[46.1 µM],.,.
COc1nccnc1NS(=O)(=O)c1ccc(NC(=S)NC(=O)c2cccnc2)cc1,0%,.,17%,-1%,3%,.,.,.
O=C1CSC(=Nc2ccc(O)cc2)N1,1%,.,7%,6%,-6%,.,.,.
COc1ccc(OCc2ccc(-c3nc(C#N)c(NC(C)c4ccccc4)o3)o2)cc1 (centres undefined),.,7%[46.1 µM],-18%,.,.,-2%[46.1 µM],-1.8%,-23%
CCCSc1cc(Cl)nc(N)n1,0%,-12%,4%,-1%,-14%,?,.,.
COc1ccc(C(=O)NNC2CC(=O)N(Cc3ccccc3)C2=O)cc1OC (centres undefined),-22%,7%,-20%,3%,8%,1%,-1.0%,14%
O=C(COc1ccc(Br)cc1Cl)N1CCN(c2ccccn2)CC1,-10%,.,-27%,-46%,-2%,.,.,.
COc1ccc(-c2csc(NC(=O)CN3C(=O)C4CCCCC4C3=O)n2)cc1OC (centres undefined),19%,1%,?,18%,18%,16%,.,.
CN(C)S(=O)(=O)c1ccc(C(=O)Nc2ccc3ncccc3c2)cc1,-2%,-1%[46.1 µM],29%,1%,4%,?,.,.
COC(=O)c1ccc(C2/C(=C(/O)c3ccc4c(c3)CC(C)O4)C(=O)C(=O)N2Cc2cccnc2)cc1 (centres undefined),-10%,.,-7%,-2%,13%,.,.,.
CC1(C)CC(CCC(=O)Nc2ccc(S(N)(=O)=O)cc2)C(=O)O1 (centres undefined),1%,2%,-25%,-1%,8%,10%,-1.9%,-8%
Cc1ccc(NC(=O)CNC(C)c2ccccc2)cc1 (centres undefined),2%,17%[46.1 µM],15%,-5%,0%,?,.,.
CC(CCc1ccccc1)NC(=O)CN1CCN(Cc2ccc(Cl)cc2)C1=O (centres undefined),-4%,.,?,1%,6%,.,3.6%,?
N#Cc1ccc(-n2nccc2-c2cnc3n(c2=O)CCS3)cc1,12%,0%,16%,0%,1%,16%[46.1 µM],1.8%,-5%
COc1ccc(S(=O)(=O)Nc2ccccc2C(=O)Nc2nc(-c3ccc(F)cc3)cs2)cc1OC,-9%,11µM*,-16%,-52%,-18%,?,-14%,20µM*
# (further entries)
SMILES,SARS PLP yeast,LASV entry inh,2A StopGo,NS1 inh,RE007 growth inh,MARV entry inh,Cruzain inh Det,Cruzain inh noDet
COc1ccc(C/C(N)=N/n2cnnc2)cc1Cl,-2%,-16%,0%,-4%,-3%,4%,0.8%,-6%
NNc1n[nH]c(=S)n1N,8%,?,-2%,-9%,-12%,?,.,.
O=C(CCNC(=O)c1ccco1)Nc1ccc(N2CCOCC2)cc1,-1%,28%,1%,-2%,-12%,2%[46.1 µM],.,.
CCN1CCN(C(=O)C2CCCN(c3ncnc4c3nc3n4CCCCC3)C2)CC1 (centres undefined),3%,3%[46.1 µM],1%,21%,1%,?,.,.
O=C(CSc1nc2c(c(=O)[nH]1)CCC2)Nc1ccc(F)cc1,-1%,13%,-13%,4%,-17%,-3%[46.1 µM],.,.
CC1(C2(O)CC(c3ccccc3)ON2)CCCCC1 (centres undefined),6%,.,.,-4%,.,.,-5.5%,-8%
COc1ccc(O)c(/C=N/NC(=O)CCC(=O)Nc2cccc(C)c2)c1,-1%,?,-21%,8%,30%,?,.,.
